HNF4A DNA FP: change in binding of human HNF4A to DNA, primary screen, biochemical, fluorescence polarization, FITC-DNA. Hepatocyte nuclear factor 4-alpha (Homo sapiens), P41235. 1 h. activity change, % at 10 µM. actives 0.3% (n = 360,000). AID 1224865, 2016; in the data active means activity change above about 30%, passing the limit was not always enough;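 further: controls were the assay level and a saturating level of protein; the project sought stronger binding though the title names inhibitors; some compounds called inactive have numbers as strong as hits; positive values seem to mean higher polarization but the record does not say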
RanGTP-Impb inh: inhibitors of RanGTP-importin-beta interaction, primary screen, biochemical, FRET, CFP-Ran, YFP-importin-beta, homogeneous. Ran GTPase (GTP-bound) - importin-beta complex. cell-free CFP-Ran/YFP-importin-beta FRET ratio. inhibition, % (concentration not given with the values). actives 1.1% (n = 300,000). AID 2216, 2009;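 active means most replicates above 15%; inconclusive means exactly half above 15%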;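 further: 0% = DMSO wells and 100% = Ran loaded with GDP instead of GTP; wells of about 40 µL received 100 nL stock; the first replicate is given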
AF4-AF9 inh: inhibitors of AF4 peptide binding to AF9, primary screen, biochemical, AlphaScreen, biotin-AF4 peptide, FLAG-AF9, single point; inhibition, % at 10 µM; actives 0.47% (n = 350,000); Protein AF-9 (Homo sapiens), P42568; AID 651704, 2012;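 active means every replicate reaching a set inhibition limit, whatever the replicate mean, cut at about 25% in these data; inconclusive means mean inhibition reaches that limit but some replicates miss it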;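 further: 0% = plate neutral control median and 100% = total signal loss; the record names both 10 and 1 µM as test concentration; the first replicate is given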
Target sequence (P42568 whole entry, looked up): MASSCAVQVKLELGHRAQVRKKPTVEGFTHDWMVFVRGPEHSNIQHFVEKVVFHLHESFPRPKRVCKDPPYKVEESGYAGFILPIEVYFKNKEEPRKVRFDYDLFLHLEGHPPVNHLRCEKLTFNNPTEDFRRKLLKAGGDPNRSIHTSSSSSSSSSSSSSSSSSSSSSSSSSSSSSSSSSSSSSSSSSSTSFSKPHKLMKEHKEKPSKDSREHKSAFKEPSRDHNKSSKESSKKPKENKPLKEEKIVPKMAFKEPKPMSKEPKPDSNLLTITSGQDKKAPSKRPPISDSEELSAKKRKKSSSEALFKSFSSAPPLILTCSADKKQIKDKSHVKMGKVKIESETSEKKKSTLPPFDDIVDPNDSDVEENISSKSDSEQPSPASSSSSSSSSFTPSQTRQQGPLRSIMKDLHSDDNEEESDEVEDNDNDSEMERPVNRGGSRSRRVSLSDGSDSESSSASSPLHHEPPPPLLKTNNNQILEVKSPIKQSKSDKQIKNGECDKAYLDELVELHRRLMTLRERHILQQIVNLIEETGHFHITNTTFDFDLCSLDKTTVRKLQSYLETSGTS
Ecoli growth: E. coli growth inhibition, primary screen, OD600 | Escherichia coli growth, 23 h; active compounds read low | actives 0.21% (n = 330,000) | OD600 absorbance (no concentration beside the values);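 active means OD600 absorbance below the run mean of sample wells minus 3.6 SD, in any replicate, cut at about 0.56 in these data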;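 further: stock transfer was 300 nL into about 60 µL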
FGF22 binding: binders of human FGF22 protein, primary screen, FGF22 synaptogenesis inhibitor project, biophysical, thermal shift, single point. recombinant FGF22 thermal shift, SYPRO orange fluorescence; percent of sucrose octasulfate shift, DMSO zero. Fibroblast growth factor 22 (Homo sapiens), Q9HCT0. AID 651658, 2012. actives 1.5% (n = 340,000). calls only at 9.99 µM;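 active means melting point raised past a set limit in the mean and every replicate; inconclusive means no clear call; three in four hits are not shown here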
Target sequence (Q9HCT0 whole entry, looked up): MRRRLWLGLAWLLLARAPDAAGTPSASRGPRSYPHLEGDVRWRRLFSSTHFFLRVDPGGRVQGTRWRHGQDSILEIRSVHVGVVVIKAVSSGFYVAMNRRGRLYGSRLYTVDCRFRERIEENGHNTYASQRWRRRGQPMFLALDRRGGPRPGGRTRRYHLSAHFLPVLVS
Vif A3G: inhibitors of Vif binding to APOBEC3G peptide, primary screen, biochemical, TR-FRET, GST-Vif 1-94, biotin-A3G peptide, dose response retest (AID 1117319); TR-FRET GST-Vif / biotin-A3G peptide binding; higher % means a stronger effect; test concentration not given here; strong numbers were not always called active; inhibition, %; hits with a dose series show IC50 in µM; actives 0.57% (n = 260,000);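 active means above the screen mean plus three standard deviations and confirmed in dose response; inconclusive means results disagree or hit not tested in dose response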;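 further: Vif residues 1-94 fused to GST binding biotinylated APOBEC3G peptide 110-148; 0% = full assay without inhibitor and 100% = GST in place of GST-Vif; retest series ran down from 100 µM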
UCH37 DUB inh: inhibitors of human UCH37 deubiquitinase, primary screen, biochemical, Ub-AMC cleavage, fluorescence | Ubiquitin carboxyl-terminal hydrolase isozyme L5 (Homo sapiens), Q9Y5K5 | purified proteasome/UCH37 | inhibition, % (concentration not given with the values) | actives 0.33% (n = 330,000) | AID 588478, 2011;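 active means mean of two replicates above 20%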;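 further: 0% = compound-free wells with enzyme and 100% = wells lacking proteasome; stock transfer was 100 nL into about 20 µL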
Target sequence (Q9Y5K5 whole entry, looked up): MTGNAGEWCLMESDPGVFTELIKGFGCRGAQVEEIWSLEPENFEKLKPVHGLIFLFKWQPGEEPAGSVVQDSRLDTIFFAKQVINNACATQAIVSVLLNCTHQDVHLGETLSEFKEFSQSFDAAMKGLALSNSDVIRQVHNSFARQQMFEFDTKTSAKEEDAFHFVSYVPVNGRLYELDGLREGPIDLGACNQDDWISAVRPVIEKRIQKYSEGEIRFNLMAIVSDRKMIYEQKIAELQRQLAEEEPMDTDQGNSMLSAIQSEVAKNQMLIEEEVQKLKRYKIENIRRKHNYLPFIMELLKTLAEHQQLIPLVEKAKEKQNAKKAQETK
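Material: Human UCH37 enzyme supplied as purified proteasome complex | Schedule: 30 min preincubation with enzyme, 25 min cleavage at room temperature | Detection: AMC fluorescence 355/460 nm | Measure: % inhibition of Ub-AMC cleavage fluorescence | Controls: Wells without proteasome as full block, compound-free enzyme plus substrate as uninhibited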
* marks the source's active call; other numbers are inactive results; i = inactive; ? = inconclusive; . = not tested or not shown; & = joins results of further samples.

SMILES	HNF4A DNA FP	RanGTP-Impb inh	AF4-AF9 inh	Ecoli growth	FGF22 binding	Vif A3G	UCH37 DUB inh
CCNC(=O)[C@H]1O[C@@H](n2cnc3c(N)nc(NCCc4ccc(CCC(=O)O)cc4)nc32)[C@H](O)[C@@H]1O	-0.7	6.5	2.6	.	i	20%	4.1
Cc1ccnc(NS(=O)(=O)c2ccc(NC(=O)c3ccc(S(=O)(=O)N(C)C)cc3)cc2)n1	-2.9	9.5	-5.7	0.7	i	-7%	1.2
COC(=O)[C@@]12C[C@@H](CC(=O)NCc3ccc(C)o3)C(=O)N(CCc3ccc(OC)c(OC)c3)C1=CCC(C)(C)C2	6.1	.	5.4	.	i	.	.
C[C@@H](C(=O)NC1CCCCC1)N1C(=O)N2CCc3c([nH]c4ccccc34)[C@@]2(C)C1=O	2.7	-0.4	9.0	0.73	i	.	6.2
CCOC(=O)CN(C)S(=O)(=O)c1ccc(-c2cc(C(=O)OC)sc2C(F)(F)F)cc1	-2.7	1.9	-3.5	0.62	i	.	3.0
O=C(Nc1ccc(S(=O)(=O)N2CCCC2)cc1)c1cnccn1	0.0	0.2	0.6	0.68	i	6%	6.1
C[C@@H](NCCCn1ccc(NC(=O)OCc2ccccc2)nc1=O)c1cccc2ccccc12	0.0	.	6.0	.	i	3%	.
O=C(COC(=O)C1(c2ccc(F)cc2)CCCC1)N1CCc2ccccc21	1.1	4.2	.	0.68	.	2%	6.4
COC(=O)C1=C2SCC(=O)N2C(N)=C(C#N)C1	-2.1	10.0	-3.4	0.69	i	-12%	5.4
Cc1ccc(NC(=O)C(Cc2ccccc2)NC(=O)c2ccco2)cc1 (centres undefined)	-3.3	-0.2	.	0.7	.	-1%	1.3
Cc1ccc(C(=O)NCCCn2ccnc2)cn1	2.5	-1.3	.	0.7	.	1%	4.3
CCN(c1ccc(NC(=O)COC(=O)CCC(=O)c2ccc(F)cc2)cc1)C(C)C	5.6	-4.4	.	0.74	.	28%	1.4
COc1cccc(/C=N/Nc2nnc(C)n2N)c1OCc1ccccc1Cl	-1.4	-1.8	.	.	.	9%	.
Cc1cc[n+](Cc2ccc([N+](=O)[O-])cc2)cc1	-0.1	-3.9	2.0	0.68	i	-2%	2.2
COc1ccc2oc(=O)c(C(=O)N3CCCC3)cc2c1	-0.7	0.7	2.5	0.68	i	-9%	-244
CS(=O)(=O)N1CCc2cc(-c3csc(NCC4CCCO4)n3)ccc21 (centres undefined)	1.4	-2.7	.	0.71	.	0%	-1.2
Cc1ccc(CNC(=O)CNC(=O)[C@@H]2Cc3ccccc3CN2)cc1	9.8	9.6	2.9	0.68	i	.	1.5
Cc1ccc(-c2ccc(C(=O)O)c(C)n2)cc1	0.1	0.5	-5.0	0.65	i	-2%	-0.5
COc1cc(OC)c(C(=O)N2CCCC2)cc1OC	2.6	1.0	-0.5	0.66	i	2%	4.1
CCCCOc1ccc(/C=C/C(=O)OCC(=O)NC2CCS(=O)(=O)C2)cc1OCC (centres undefined)	0.0	1.2	1.2	0.67	i	-5%	-55
O=C(Nc1ccc(S(=O)(=O)N2CCN(c3ccccc3)CC2)cc1)c1cccs1	-1.5	-1.7	-9.9	0.69	i	5%	0.2
Cc1cccc(Oc2ccccc2N)c1	1.8	-3.4	-31	0.74	i	3%	1.2
Cc1cc(C(=O)N2CCC2(C)C(=O)NS(=O)(=O)c2cccc(Cl)c2)nn1C (centres undefined)	0.0	.	-5.1	.	i	.	.
COc1ccc(C)cc1S(=O)(=O)N(CC(=O)N1CCOCC1)c1cc(C)cc(C)c1	-0.7	-1.3	-15	0.71	i	2%	-1.0
CCOc1ccc(C(=O)OCC(=O)Nc2nc(OC)cc(OC)n2)cc1OCC	6.4	-2.9	.	0.71	.	0%	2.3
COc1ccc(CCN2CC(C(=O)NCc3cc(C(C)C)no3)CCC2=O)cc1 (centres undefined)	4.2	-3.9	-6.5	0.67	i	.	4.2
Oc1[nH]c2ccccc2c1N=Nc1nc2ccccc2s1	2.5	-2.9	.	0.68	.	10%	5.4
O=C(O)c1cc(N/N=C/c2ccc(N3CCOCC3)cc2)ccc1Cl	-1.2	1.9	-12	.	i	.	.
Cc1nn(CCCC(=O)Nc2cc(Oc3ccccc3)cc([N+](=O)[O-])c2)c(C)c1[N+](=O)[O-]	2.6	5.0	.	0.66	.	24%	0.5
CC1=NN(c2cccc(Cl)c2)C(=O)C12CC(C)=C(C)CS2 (centres undefined)	-0.6	-4.5	.	0.69	.	3%	0.9
CCCc1cc(=O)[nH]c(SCC(=O)Nc2c(C)n(C)n(-c3ccccc3)c2=O)n1	0.2	.	-1.3	0.7	i	-1%	1.7
CCC(C(=O)NCC1CCCO1)n1nc(C)c2sc3ccccc3c2c1=O (centres undefined)	2.9	3.9	-23	0.66	i	.	-0.9
CN(C)/C=C/C(=O)c1ccc(Oc2ccccc2)cc1	1.8	2.2	-4.5	0.67	i	.	12
Cc1cc(C(=O)Nc2cccc3ccccc23)c(C)o1	-1.9	8.9	3.7	0.7	i	.	3.1
CCc1nc2c(OCc3ccc(OC(F)F)cc3)cccn2c1N(C)C(=O)c1cccs1	0.0	.	1.5	.	i	.	.
Cc1ccc(C(=O)N2CCc3ccccc32)cc1C	-3.7	.	0.7	0.62	i	.	1.9
OC1C(O)C(O)C(O)C(O)C1O (centres undefined)	-2.7&3.1&-0.5	?	0.7&-0.6&-3.1	0.67&0.7&0.66	i	.	2.6&2.3&3.7
Cn1nc(-c2ccccc2)c(-c2nc(-c3ccc(Cl)cc3)no2)c1Cl	-0.8	-0.7	.	0.75	.	-3%	3.2
COc1ccc(C(=O)NCc2ccccc2)cc1Br	-1.2	3.5	0.1	0.67	i	19%	2.5
Cc1cc(C(C)(C)C)ccc1OCCOCCN1CCCC1	-0.1	-2.2	.	0.68	.	.	0.8
COc1cccc(/C=C2\SC(=S)N(CCC(=O)N3CCCCC3)C2=O)c1	4.1	-2.9	-2.0	0.71	i	.	9.9
CCc1ccccc1N1CN(Cc2cccnc2)CNC1=S	-5.9	-3.4	2.5	0.66	i	18%	-2.6
CSc1nc(N(C)NC(=O)c2ccccc2)c2ccccc2n1	-0.1	4.2	.	0.7	.	4%	2.7
COc1ccccc1C(=O)O/N=C(\N)c1ccccc1Cl	2.0	-5.4	-2.3	0.69	i	-9%	0.7
Cc1ccccc1C(=O)OCC(=O)N1CC(=O)Nc2ccccc21	9.6	.	-0.5	.	i	5%	.
CCN(CC(=O)Nc1c(F)cccc1F)C(=O)Cc1c(C)nc2ccccc2c1C	0.0	.	0.6	0.68	i	13%	2.4
CCOc1ccc(-n2cc(C(=O)NC(C)C)c3cc(OC)c(OC)cc3c2=O)cc1	-0.8	0.7	.	0.67	.	-2%	-0.1
CC(OC(=O)CC1CCCCC1)C(=O)Nc1ccc(S(N)(=O)=O)cc1 (centres undefined)	4.2	2.2	0.3	0.59	i	0%	1.2
CN(CCCN1CCOCC1)C(=O)c1cc(COc2ccc(F)cc2F)on1	-3.5	2.0	2.0	0.67	i	.	4.5
CCOc1ccc(S(=O)(=O)NCCC(=O)NCC(c2ccccc2OC)N2CCCC2)cc1 (centres undefined)	-1.1	4.1	0.2	0.66	i	.	0.4

In another format: results already given.
SMILES | HNF4A DNA FP | RanGTP-Impb inh | AF4-AF9 inh | Ecoli growth | FGF22 binding | Vif A3G | UCH37 DUB inh
Cc1ccccc1C(=O)OCC(=O)N1CC(=O)Nc2ccccc21 | 9.6 | . | -0.5 | . | i | 5% | .
CCN(CC(=O)Nc1c(F)cccc1F)C(=O)Cc1c(C)nc2ccccc2c1C | 0.0 | . | 0.6 | 0.68 | i | 13% | 2.4
CCOc1ccc(-n2cc(C(=O)NC(C)C)c3cc(OC)c(OC)cc3c2=O)cc1 | -0.8 | 0.7 | . | 0.67 | . | -2% | -0.1
CC(OC(=O)CC1CCCCC1)C(=O)Nc1ccc(S(N)(=O)=O)cc1 (centres undefined) | 4.2 | 2.2 | 0.3 | 0.59 | i | 0% | 1.2
CN(CCCN1CCOCC1)C(=O)c1cc(COc2ccc(F)cc2F)on1 | -3.5 | 2.0 | 2.0 | 0.67 | i | . | 4.5
CCOc1ccc(S(=O)(=O)NCCC(=O)NCC(c2ccccc2OC)N2CCCC2)cc1 (centres undefined) | -1.1 | 4.1 | 0.2 | 0.66 | i | . | 0.4

Carrying on.
SMILES	HNF4A DNA FP	RanGTP-Impb inh	AF4-AF9 inh	Ecoli growth	FGF22 binding	Vif A3G	UCH37 DUB inh
CCN(C(=O)CSc1nnnn1-c1ccccc1OC)C1CCS(=O)(=O)C1 (centres undefined)	-0.3	-5.1	2.2	0.68	i	-3%	0.2
C=CCn1c(=NC(=O)c2ccc(S(=O)(=O)N3CCCC3)cc2)sc2cc(NC(C)=O)ccc21	8.6	7.0	-3.6	0.66	i	-16%	-374
C[C@H]1C=C(C(=O)NC2CC2)O[C@@H](OCc2ccc(CO)cc2)C1	-4.5	?	-12	.	i	6%	3.2
Cn1c(/C(C#N)=C(\O)c2ccc([N+](=O)[O-])cc2)nc2ccccc21	4.3	-4.8	0.2	0.71	i	.	1.8
CCOc1ncccc1C(=O)NCC1COc2ccccc2O1 (centres undefined)	5.1	.	.	0.65	.	5%	2.6
CCOc1ccc(NC(=O)CN(C)S(=O)(=O)c2ccc3c(c2)CCC(=O)N3)cc1	2.2	0.4	2.3	0.72	i	-1%	-0.3
CC1CC(C)CN(c2ccc(NS(=O)(=O)c3ccccc3)cc2C(=O)O)C1 (centres undefined)	-1.0	-1.5	-2.7	0.7	i	.	3.5
Cn1c(SCc2cccc3ccccc23)nnc1-c1ccco1	4.6	0.1	.	0.74	.	1%	-0.6
CCOC(=O)N1CCN(C(=O)c2ccc3ccccc3c2)CC1	-6.1	2.2	3.8	0.63	i	.	1.1
COC(=O)C1=C(C)N(c2cccc(Cl)c2)C(=O)C1	-2.1	4.8	.	0.72	.	2%	-0.3
O=C(CCl)N=c1sccn1Cc1cccc2ccccc12	2.8	4.2	-2.5	0.71	i	.	4.0
COc1ccc(NC(=O)CN2C(=O)NC(C)(C3CC3)C2=O)c(OC)c1 (centres undefined)	-3.6	.	0.5	.	i	-2%	.
O=C(C1CC1)N1N=C(c2ccncc2)CC1(O)C(F)(F)F (centres undefined)	-1.5	2.0	-0.6	0.72	i	2%	-0.5
CCCn1c(SCC(=O)NC)nnc1C(C)C	-0.4	-4.2	.	0.66	.	6%	-0.2
COC(=O)c1cc2n3ccccc3c(C)c(-c3ccccc3)c-2c1C(=O)OC	-4.2	-1.4	.	0.78	.	18%	0.0
c1ccc2c(c1)CC1(CCCCC1)n1nnnc1-2	-1.3	-4.5	-18	0.69	i	20%	4.0
COc1ccc(Oc2ccc(C(F)(F)F)cc2NC(=O)CC(CC(=O)O)c2ccccc2)cc1 (centres undefined)	-1.2	?	0.6	0.68	i	2%	-1.1
N#Cc1cccc(NC(=O)COC(=O)c2cccc(N3C(=O)c4ccccc4C3=O)c2)c1	-0.8	2.2	.	0.7	.	1%	1.7
O=C(Cn1ccc(NC(=O)OCc2ccccc2)nc1=O)NCc1ccc2[nH]ccc2c1	-3.8	.	-16	0.71	i	.	-0.6
CCc1ccc(NC(=O)C(=O)NCC2CCCN2S(=O)(=O)c2ccccc2)cc1 (centres undefined)	0.3	3.0	0.3	0.72	i	-10%	3.1

Not all compounds are listed. The share of hits here may be higher or lower than overall.
